# PV pol inh – inhibitors of poliovirus RNA polymerase binding and polymerization | % elongation, % (compound at 16.7 µg/mL) | 0.66% of 150,000 active | poliovirus polymerase elongation, fluorescence polarization; hits give low values; in the data active = % elongation below about 90%; note: some results filed as inactive read as strong as hits
# Target sequence (P03300 1749-2209 limits assumed): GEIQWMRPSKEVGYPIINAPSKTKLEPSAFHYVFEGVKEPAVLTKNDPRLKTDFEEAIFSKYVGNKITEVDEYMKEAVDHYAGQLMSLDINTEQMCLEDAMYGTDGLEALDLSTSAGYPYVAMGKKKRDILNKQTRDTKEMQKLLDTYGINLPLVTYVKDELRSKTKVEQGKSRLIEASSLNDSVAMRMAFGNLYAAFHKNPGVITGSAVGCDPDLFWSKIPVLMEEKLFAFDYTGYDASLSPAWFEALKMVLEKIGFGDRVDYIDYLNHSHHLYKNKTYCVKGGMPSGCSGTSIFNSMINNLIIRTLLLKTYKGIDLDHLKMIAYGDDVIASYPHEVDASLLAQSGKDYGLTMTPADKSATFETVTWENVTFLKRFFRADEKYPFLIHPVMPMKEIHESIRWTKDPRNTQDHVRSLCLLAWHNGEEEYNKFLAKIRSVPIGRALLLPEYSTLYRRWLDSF
# Mtb MbtI inh – MbtI salicylate synthase inhibition; purified MbtI enzyme, fluorescence intensity read-out; inhibition, %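 (about 17 µg/mL by stock and volumes)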; AID 493033; P9WFX0; 0.89% of 100,000 active;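 active = above 50% in both replicates, above 80% if mildly self-fluorescent; inactive = the rest, strongly fluorescent compounds included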;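 note: 0% = mean of negative and 100% = mean of positive controls; one replicate is shown; some compounds called inactive have numbers as strong as hits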
# Mtb MenB inh – blocks the Mycobacterium tuberculosis MenB enzyme | MenB enzyme assay, absorbance read-out; some hits fall short of the stated cut | 0.43% of 100,000 active | inhibition, %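 (about 12 µg/mL by stock and volumes)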 | P9WNP5;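 active = mean of two replicates above 30%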;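 note: 0% = no compound and 100% = wells with inactive enzyme; the first replicate is given; strong numbers were not always called active; inactives centre near -10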
# Target sequence (P9WNP5 whole entry, looked up): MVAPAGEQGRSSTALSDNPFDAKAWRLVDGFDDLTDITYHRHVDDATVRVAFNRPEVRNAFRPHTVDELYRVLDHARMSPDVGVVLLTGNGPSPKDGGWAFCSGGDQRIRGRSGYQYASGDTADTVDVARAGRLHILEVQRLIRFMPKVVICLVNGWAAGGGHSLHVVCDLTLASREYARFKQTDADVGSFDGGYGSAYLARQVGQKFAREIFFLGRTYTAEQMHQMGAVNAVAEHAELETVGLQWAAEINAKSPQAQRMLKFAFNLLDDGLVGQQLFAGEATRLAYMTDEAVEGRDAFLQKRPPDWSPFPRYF
# PV pol inh intensity – further read-out of PV pol inh, marked with its call; % elongation; measured here: total intensity read-out; formula for this scale not given here;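 total fluorescence in place of polarization; lower means less elongation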
# * hit, by the source's call; nt = no result given; & = joins results of further samples. Compounds as they come; overall some 1.7% were active at least once.
1	O=C(OCc1c(F)cccc1Cl)c1cc[n+]([O-])cc1
2	Cc1ccc(S(=O)(=O)NC(=O)NN2CCCCCC2)cc1
3	CC1=NN(c2cccc(C(=O)O)c2)C(=O)/C1=C/c1ccc(-c2cccc(Cl)c2C)o1
4	COC(=O)c1ccccc1S(=O)(=O)N1CCC(C(=O)OCN2C(=O)c3ccccc3C2=O)CC1
5	CC(C)(C)OC(=O)N1CCCN(C(=O)Nc2ccc(F)cc2F)CC1
6	COc1ccc(Cc2nnc(SC(C)C(=O)Nc3ccc4c(c3)OCO4)n2C)cc1 (configuration not stated)
Screen / compound no.	1	2	3	4	5	6
PV pol inh	104	105&102&103&103	90*	108	99	101
PV pol inh intensity	108	105&104&100&98	86*	112	103	102
Mtb MbtI inh	-5	-9&-8&-10	38	-12	-9	6
Mtb MenB inh	nt	-6&-3&-6	-17	-15	-1	17

7	Cc1ccc(S(=O)(=O)N2CCN(C(=O)COC(=O)/C=C/c3ccc(C)o3)CC2)c(C)c1
8	Cc1nc2ccccc2c2oc(C(=O)NC3CCCC3)cc12
9	CC1(C)NC(=O)N(CCSc2ccc(Cl)cc2)C1=O
10	CC1Cc2cc(-c3nn(-c4ccccc4)cc3/C=c3\sc4nc(-c5cccs5)nn4c3=O)ccc2O1 (configuration not stated)
11	CC(=O)Oc1ccccc1OCC(=O)c1ccccc1
12	CC1(C)CC(=O)C(CC(=O)N2CCN(S(=O)(=O)c3ccccc3)CC2)C(=O)C1
Screen / compound no.	7	8	9	10	11	12
PV pol inh	101	102	102	103	104	100
PV pol inh intensity	102	99	104	110	106	92
Mtb MbtI inh	-1	35	-3	-4	-5	-9
Mtb MenB inh	1	-8	-3	2	nt	-26

# Results in PV pol inh, for some of the entries so far:
entry | canonical_smiles | PV pol inh
6 | COc1ccc(Cc2nnc(SC(C)C(=O)Nc3ccc4c(c3)OCO4)n2C)cc1 (configuration not stated) | 101
7 | Cc1ccc(S(=O)(=O)N2CCN(C(=O)COC(=O)/C=C/c3ccc(C)o3)CC2)c(C)c1 | 101
8 | Cc1nc2ccccc2c2oc(C(=O)NC3CCCC3)cc12 | 102
9 | CC1(C)NC(=O)N(CCSc2ccc(Cl)cc2)C1=O | 102
10 | CC1Cc2cc(-c3nn(-c4ccccc4)cc3/C=c3\sc4nc(-c5cccs5)nn4c3=O)ccc2O1 (configuration not stated) | 103

# Further results:
13	COc1cc(SC)ccc1C(=O)N1CCCC(C)C1 (configuration not stated)
14	COC(=O)c1ccc2c(c1)no[n+]2[O-]
15	CCn1c(C)c(CCC(=O)NCCCc2ccccc2)c(=O)n2nc(-c3ccccc3OC)cc12
16	CC(C)N=C(NS(=O)(=O)c1cccs1)c1ccccc1
17	CNc1sc(S(C)(=O)=O)nc1S(=O)(=O)c1ccc(C)cc1
18	COc1ccc(CN(Cc2ccncc2)C(=O)CCC(=O)O)cc1
Screen / compound no.	13	14	15	16	17	18
PV pol inh	101	99	100	106	104	103
PV pol inh intensity	98	96	103	110	102	101
Mtb MbtI inh	-9	nt	10	-5	-1	-27
Mtb MenB inh	-30	10	9	-14	-12	8

19	COc1ccccc1C1N(c2ccc(Cl)cc2)C(=O)N2CCCN12 (configuration not stated)
20	CCOC(=O)c1cc2ccccc2n1C
21	Cc1ccc(OCc2n[nH]c(=S)n2-c2ccccc2)cc1C
22	N#CC1=C(N)SC(N)=C(C#N)C1c1cc2c(cc1Cl)OCO2
23	Cc1cc(C)n2nc(Cc3ccccc3)nc2n1
24	CCCCn1c(=O)n(C)c(=O)c2c(C(F)(F)F)cc(C)nc21
Screen / compound no.	19	20	21	22	23	24
PV pol inh	101	102	105	76	100	103
PV pol inh intensity	103	102	105	194	105	101
Mtb MbtI inh	0	-50	nt	66	-7	122
Mtb MenB inh	9	-11	-39	-255	3	-16

25	O=C(Nc1cccnc1)OCCN1CCOC1=O
26	COc1ccc(C2=NN(CCC(=O)NC3CC3)C(=O)CC2)cc1
27	CO[C@H]1O[C@H](COC(=O)c2ccccc2)[C@@H](O)[C@H](O)[C@H]1OC(=O)c1ccccc1
28	C=CCN1CC(O)=C(c2nc3ccccc3[nH]2)C1=N
29	COc1ccccc1-c1nn(-c2ccc(C(F)(F)F)cn2)c(=O)o1
30	CC(=O)N1CCN(C(=O)CCc2nc3ccccc3c(=O)[nH]2)CC1
Screen / compound no.	25	26	27	28	29	30
PV pol inh	103	104	105	105	99	100
PV pol inh intensity	101	105	110	106	101	103
Mtb MbtI inh	-9	-1	-16	7	1	0
Mtb MenB inh	-17	-5	-17	-12	-16	20

31	N/C(=N\O)c1ccc(F)cc1
32	CC1=CC(C)(C)N(C(=O)CSc2nnc3sc4ccccc4n23)c2ccccc21
33	O=c1c2ccccc2[nH]c(=S)n1Cc1ccccc1
34	COCCCn1c(C)cc(C(=O)CSc2ncnc3ccccc23)c1C
35	Cc1cc(OCC(=O)Nc2ccccc2N2CCN(C)CC2)cc(C)c1Cl
36	CCCCCN=C1NN=C(c2ccccc2)C(C(=O)Nc2cccnc2)S1 (configuration not stated)
Screen / compound no.	31	32	33	34	35	36
PV pol inh	100	103	103	100	103	98
PV pol inh intensity	101	102	110	93	101	100
Mtb MbtI inh	-3	-1	-11	28	-7	8
Mtb MenB inh	19	-17	-33	14	-20	-27

37	COc1ccc(OCC(=O)Nc2c(Cl)cccc2Cl)cc1
38	CCn1c(SCC(=O)NCc2ccc(Cl)cc2)nnc1-c1ccccc1OC
39	CCC(=O)N(c1n[nH]c(=S)s1)C1CC1
40	O=C(C[n+]1cccc(C(=O)Nc2ccccc2)c1)c1ccc(N2C(=O)c3ccccc3C2=O)cc1
41	Cc1[nH]c(=S)[nH]c(=O)c1CCO
42	CSc1ccc(-c2ccc3c(c2)OCCO3)nn1
Screen / compound no.	37	38	39	40	41	42
PV pol inh	100	101	nt	102	102	102
PV pol inh intensity	101	114	nt	104	104	104
Mtb MbtI inh	-8	-10	91*	57*	11	21
Mtb MenB inh	nt	-1	-13	-89	-15	-8

43	c1cncc(-c2nn3cnnc3s2)c1
44	NS(=O)(=O)c1ccc(CNC(=O)c2ccccc2Oc2ccccc2)cc1
45	COC(=O)/C(=C(/O)CSc1nnc(-c2ccco2)n1Cc1ccccc1)c1nc2ccccc2[nH]1
46	O=C(Cc1n[nH]c(=O)c2ccccc12)OCCCCN1C(=O)c2ccccc2C1=O
47	CC(C)Cn1c(N)c(C(c2cccnc2)N2CCN(c3ccccc3)CC2)c(=O)[nH]c1=O (configuration not stated)
48	OC(COc1ccc(Cl)cc1)C(O)C(O)c1cnn(-c2ccccc2)n1 (configuration not stated)
Screen / compound no.	43	44	45	46	47	48
PV pol inh	101	105	99	100	106	105
PV pol inh intensity	103	112	108	99	97	105
Mtb MbtI inh	-3	nt	-15	-28	-7	3
Mtb MenB inh	13	-22	-41	-13	-25	-25

49	Cc1ccc(NC(=O)CCCSc2nc(-c3ccco3)cc(C(F)(F)F)n2)cc1
50	C(=N\n1c(-c2ccco2)csc1=NCc1ccccc1)/c1cccnc1
51	Cc1cc(C(=O)Cn2cnnc2C#N)c(C)n1-c1ccc(Br)cc1
52	CCCn1c(CCC(=O)NC2=NCCS2)nc2cc(S(=O)(=O)N(CC)CC)ccc21
53	CCN(CCO)C(=O)CCN1C(=O)/C(=C/c2ccc(OC)c(OC)c2)SC1=S
54	O=C(CC(=O)NN=C1CCCC1)NCc1ccccc1
Screen / compound no.	49	50	51	52	53	54
PV pol inh	104	102	103	103	104	100
PV pol inh intensity	101	107	105	109	100	103
Mtb MbtI inh	-10	14	55	2	5	-4
Mtb MenB inh	-8	-42	-18	-20	-76	26

55	CN(Cc1ccccc1)C(=O)CCC(=O)N1CC2CCCN2c2ccccc21 (configuration not stated)
56	CCn1c(=O)c(CCC(=O)NCCN2CCOCC2)c(C)c2c(C)nn(-c3ccccc3)c21
57	CC(Sc1ccccn1)C(=O)Nc1ccc(S(N)(=O)=O)cc1 (configuration not stated)
58	CC(C)N(C(=O)C[n+]1ccc(/C=N/O)cc1)C(C)C
59	COc1ccc(-c2nn(-c3ccccc3)cc2C#N)cc1OC
60	N#CCSc1nnc(CSc2nc3ccccc3s2)n1Cc1ccccc1
Screen / compound no.	55	56	57	58	59	60
PV pol inh	100	101	102	102	101	110
PV pol inh intensity	96	103	105	103	95	110
Mtb MbtI inh	22	-25	12	8	-68	-3
Mtb MenB inh	-20	5	-8	-5	nt	-17

61	O=C1CNC(=O)N1CC(O)Cn1c2ccccc2c2ccccc21 (configuration not stated)
62	CCC(C)(C)n1c(=O)[nH]c2c(c1=O)CCC2
63	Cc1ccc(N/C(N)=N/c2nc(CSc3nnc(C)s3)cc(=O)[nH]2)c(C)c1
64	C=C[C@]12CN(C)C3C4COC(CC41)[C@]1(C(=O)Nc4ccccc41)[C@@H]32 (some centres not stated)
65	N#CCc1ccc(NC(=O)c2nccnc2C(=O)O)cc1
66	NC(=O)C[n+]1cccc(C(N)=O)c1
Screen / compound no.	61	62	63	64	65	66
PV pol inh	99	103	101	102	98	104
PV pol inh intensity	102	94	104	100	109	101
Mtb MbtI inh	-48	-6	1	-10	-5	-4
Mtb MenB inh	-1	-15	-24	2	-9	-11

67	COC(=O)C(CC(=O)c1ccc(Br)cc1)n1cncn1 (configuration not stated)
68	O=C(CN1C(=O)C2(OCCO2)c2ccccc21)c1ccc(Br)cc1
69	Clc1ccc(CSc2nnc(Cc3cccs3)n2C2CC2)cc1Cl
70	O=C(CSCc1ccccc1)NCc1ccccc1
71	CCCC(=O)C1=C(N(C)c2ccccc2)CC(C)(C)CC1=O
72	CNCc1ccc(-c2ccc(F)c(Cl)c2)o1
Screen / compound no.	67	68	69	70	71	72
PV pol inh	100	105	101	111	102	101
PV pol inh intensity	97	106	105	115	103	101
Mtb MbtI inh	38	6	-6	-2	-2	35
Mtb MenB inh	-17	2	-8	-9	5	29

73	Cc1cc(C)cc(-n2ncc3c(=O)[nH]cnc32)c1
74	Cc1ccc2[nH]c(CNC(=O)C3CC3)cc2c1
75	Brc1ccc(-n2nnnc2-c2cn[nH]c2-c2ccccc2)cc1
76	Cc1cccc(NC(=S)NCCCN2CCOCC2)c1
77	O=C(/C=C/c1ccc(Br)o1)OCCCn1c(=O)[nH]c2ccccc21
78	Cc1ccc(N/C(N)=N/c2nc3c(c(=O)[nH]2)CCCC3)c(C)c1
Screen / compound no.	73	74	75	76	77	78
PV pol inh	100	104	101	103&99	108	99
PV pol inh intensity	104	103	102	96&107	113	102
Mtb MbtI inh	36	nt	7	-5&-5	32	19
Mtb MenB inh	-3	-60	-1	-4&-12	3	15

79	S=C1NC2(CCCC2)Nc2ccccc21
80	CCCC1(CCC)C(=O)NC(=Nc2ccccc2)NC1=O
81	O=C1N(CNc2ccccc2)CCN1CNc1ccccc1
82	COc1ccc(NCC(O)COc2ccc(OC)cc2)cc1 (configuration not stated)
83	CCCc1cc(=O)oc2cc(OCC(=O)OCc3ccccc3)ccc12
84	O=C1c2cccc3cccc(c23)N1CN1CCCCC1
Screen / compound no.	79	80	81	82	83	84
PV pol inh	93	107	106	nt	102	102
PV pol inh intensity	109	99	104	nt	96	105
Mtb MbtI inh	31	-9	-12	-16	-18	7
Mtb MenB inh	-73	-61	-29	5	-31	-69

85	c1ccc(OCCSc2nnc(-c3c[nH]c4ccccc34)o2)cc1
86	CCOc1ccc(N=CC=Nc2ccc(OCC)cc2)cc1
87	COCCn1nnnc1C(c1ccc(OC)c(OC)c1)N1CCc2ccccc21 (configuration not stated)
88	Cc1nnc(SCC(=O)c2cc(C)n(CC3COc4ccccc4O3)c2C)n(N)c1=O (configuration not stated)
89	Cc1ccsc1C(=O)OCC(=O)NC(c1ccccc1)c1ccccc1
90	CCOC(=O)c1cnc2nc(C(F)(F)F)nn2c1N
Screen / compound no.	85	86	87	88	89	90
PV pol inh	99	102	101	105	101	100
PV pol inh intensity	109	106	100	106	104	103
Mtb MbtI inh	18	2	0	-8	-4	-20
Mtb MenB inh	-13	-7	18	-23	nt	-2

91	COc1ccc(-c2nnc(SCC(=O)N=Nc3c(O)[nH]c4ccccc34)n2-c2ccccc2)cc1OC
92	CSc1ccnc2c1c(=O)n(C)c(=O)n2C
93	N#Cc1cc2c(cc1N)OCO2
94	CC1CCCC(C)N1C(=O)CSc1nnc(C(F)(F)F)n1N (configuration not stated)
95	Cc1ccc2nc(COCC(=O)O)[nH]c2c1
96	CCC1CCCCN1C(=O)COC(=O)c1cc(C)nc2ccccc12 (configuration not stated)
Screen / compound no.	91	92	93	94	95	96
PV pol inh	102	100	100	100	100	100
PV pol inh intensity	104	104	106	94	102	91
Mtb MbtI inh	4	-4	8	-2	-7	12
Mtb MenB inh	-12	-24	7	-30	-6	nt

97	O=C(C1CC(=O)N(c2ccc3c(c2)OCCO3)C1)N1CCCSC1=Nc1ccccc1 (configuration not stated)
98	Cc1ccc2nsnc2c1S(=O)(=O)N1CCCC1
99	O=C(O)c1ccnn1C(F)F
100	COc1ccc(C2OC(=O)CC2C(=O)NCc2ccc(C)cc2)cc1OC (configuration not stated)
101	CC1O[C@@H](O[C@@H]2C=C3CCC4C(CC[C@]5(C)[C@@H](c6ccc(=O)oc6)CC[C@]45O)[C@@]3(C)CC2)C(O)[C@@H](O)[C@H]1O (some centres not stated)
102	Nc1nc(SCCc2ccccc2)n[nH]1
Screen / compound no.	97	98	99	100	101	102
PV pol inh	97	100	100	101	99	98
PV pol inh intensity	96	100	100	97	103	101
Mtb MbtI inh	-5	23	6	2	-24	-1
Mtb MenB inh	-4	25	-19	-33	2	-17

# Source: PubChem BioAssay
